LASV entry inh = inhibitors of Lassa virus binding or cell entry | Potency, µM (highest dose often 37.9 µM), without a hit: at the highest dose activity change, negative = inhibition, usual class: inhibitors | actives 1.2% (n = 300,000) | Lassa virus pseudotype entry inhibition, cell reporter; control for the full effect not named in the record; active means well fitted inhibition curve with a large enough effect; inconclusive means small, poorly fitted or top-dose-only effect, or effect the other way; inactive means flat fitted curve, though single readings scatter; tested in HEK293 cells; also: % is scaled to controls: 0 for no effect and ±100 for the full control effect; nearly all actives have a fitted effect of over 50% in size; luciferase read-out
NS1 function inh = blocks influenza NS1 protein function; S. cerevisiae slowed by influenza A NS1, growth recovery by OD600; Potency, µM (titrated, usually from 46.1 µM), inactives show at the highest dose activity, positive = more growth; actives 0.4% (n = 270,000); AID 2326; active means well fitted rising curve with a large enough effect; inconclusive means small, poorly fitted or top-dose-only effect; inactive means no such curve, though single readings can be large or run the other way; also: nearly all actives have a fitted effect of over 50% in size
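Read-out: OD600 growth recovery of NS1-expressing budding yeast. Cells grown overnight at 30C in -URA glucose medium, washed, resuspended and diluted 1:100 in 2% galactose assay medium, pH 6.0. Same strain lacking NS1 served as positive control.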
SARS PLpro yeast = inhibitors of SARS-CoV papain-like protease in yeast | actives 0.19% (n = 330,000) | Potency, µM (series often up to 32.9 µM), inactives show at the top dose activity, positive = growth rescue | AID 485353 | S. cerevisiae expressing SARS-CoV PLpro, growth rescue; control for the full effect not named in the record; active means well fitted rising curve with a large enough effect; inconclusive means small, poorly fitted or top-dose-only effect; inactive means no such curve, though single readings can be large or run the other way; also: 0% is about no effect; nearly all actives have a fitted effect of over 55% in size; growth read by luminescence after 48 h
2A StopGo = FMDV 2A StopGo reporter, luciferase signal. actives 1.2% (n = 410,000). human cells with a luciferase reporter of 2A StopGo recoding; control for the full effect not named in the record. AID 1159524. Potency, µM (titrated, usually from 57.9 µM), without a hit: at the highest dose signal change, negative = less light; active = well fitted falling curve with a large enough effect; inconclusive = small, poorly fitted or top-dose-only effect; inactive = no such curve, though single readings can be large or run the other way; tested in HEK293T cells; also: % is scaled to controls: 0 for no effect and ±100 for the full control effect; nearly all actives have a fitted effect of over 45% in size; luciferase light after 4 h
Marburg entry inh = Marburg virus entry inhibition | Marburg virus pseudotyped entry inhibition, cell reporter; control for the full effect not named in the record; about a third of the inactives were read at about 46 µM | Potency, µM (doses to about 37.8 µM), without a hit: top-dose activity change, negative = inhibition, most hits filed as inhibitors | actives 1.8% (n = 300,000); active = well fitted inhibition curve with a large enough effect; inconclusive = small, poorly fitted or top-dose-only effect, or effect the other way; inactive = flat fitted curve, though single readings scatter; tested in HEK293 cells; about a fifth of its hits are not listed in these tables; also: % is scaled to controls: 0 for no effect and ±100 for the full control effect; luciferase read-out
RE007 growth inh = less growth of the S. pombe RE007 Vpr strain; S. pombe RE007 Vpr strain, BacTiter-Glo ATP luminescence, 24 h; control for the full effect not named in the record; Potency, µM (highest dose often 92.2 µM), for the others: at the top dose activity change, negative = less growth; actives 0.21% (n = 360,000); AID 651644; active = well fitted falling curve with a large enough effect; inconclusive = small, poorly fitted or top-dose-only effect; inactive = no such curve, though single readings can be large or run the other way;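 also: % is scaled to controls: 0 for no effect and ±100 for the full control effect; nearly all actives have a fitted effect of over 50% in size; the assay follows cell death caused by Vpr and the record does not say whether a fall means rescue or toxicity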
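Fission yeast RE007 carrying one integrated HIV-1 vpr copy, seeded at OD 0.01 in PMG+AL medium with 23 nL pinned compound. Grown 24 h at 30 degrees; viability read by BacTiter-Glo luminescence after 5 min.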
Cruzain inh noDet = inhibitors of Trypanosoma cruzi cruzain without detergent | P25779 | purified cruzain, Z-FR-AMC fluorescence, no detergent | Potency, µM, for the others: max response, negative = inhibition, hits mostly inhibitors | actives 2.3% (n = 200,000) | AID 1476;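 also: plate controls were enzyme without inhibitor for no effect and buffer without enzyme for full effect; nearly all actives have a fitted effect of over 40% in size; top concentration of the series not given in the record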
Target sequence (P25779 123-467 limits assumed): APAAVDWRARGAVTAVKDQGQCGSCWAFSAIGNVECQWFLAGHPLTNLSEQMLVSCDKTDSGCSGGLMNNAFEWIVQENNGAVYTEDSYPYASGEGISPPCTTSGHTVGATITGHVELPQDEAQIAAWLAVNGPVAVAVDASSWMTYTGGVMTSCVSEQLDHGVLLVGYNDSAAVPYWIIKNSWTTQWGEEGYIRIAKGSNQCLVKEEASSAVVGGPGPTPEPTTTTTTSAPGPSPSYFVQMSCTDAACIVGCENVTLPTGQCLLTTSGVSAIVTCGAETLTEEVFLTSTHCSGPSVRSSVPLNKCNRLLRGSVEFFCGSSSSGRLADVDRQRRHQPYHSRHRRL
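Detergent-free condition (0.00005% Triton X-100) in acetate buffer pH 5.5 with DTT. 1.5 nM enzyme and compound were pre-mixed 15 min, then 2 uM Z-FR-AMC substrate added; reaction progress from fluorescence change between first and third reads (60 s).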
Cruzain Triton = cruzain (T. cruzi) inhibition with detergent; AID 1478; purified cruzain, Z-FR-AMC fluorescence, 0.01% Triton; actives 0.43% (n = 200,000); P25779; Potency, µM, for inactives: max response, negative = inhibition, actives largely listed as inhibitors;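 also: plate controls were neutral wells for no effect and buffer without enzyme for full effect; nearly all actives have a fitted effect of over 40% in size; top concentration of the series not given in the record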
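Read-out: AMC fluorescence (360 nm excitation, 450 nm emission), four reads over 2 min, first-to-third difference used. Conditions: cruzain 1.5 nM, Z-FR-AMC 2 uM, pH 5.5 acetate, 5 mM DTT, 0.01% Triton X-100.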
* = called active by the depositor; ? = inconclusive; · = no result given; & = joins results of further samples; [ ] = dose if it differs, or a comment. Unless noted, calls follow the shape of the dose curve; as a rule, active = well fitted curve in the direction sought with a large enough effect; inconclusive = small, poorly fitted or top-dose-only effect, or another doubt; inactive = no such curve, though single readings can be large; an effect the other way counts as inactive or inconclusive. Potency is read from the fitted curve at half-maximal effect.

SMILES	LASV entry inh	NS1 function inh	SARS PLpro yeast	2A StopGo	Marburg entry inh	RE007 growth inh	Cruzain inh noDet	Cruzain Triton
Cn1cc(S(=O)(=O)N2CCN(c3ccccc3)CC2)c(=O)n(C)c1=O	·	3%	4%	0%	·	-7%	11%	7.7%
O=C1CCCC(O)=C1N=Nc1ccc2c(c1)OCO2	19%	1%	3%	38%[activator]	?	-2%	-8%	-11%
CCCCNC(=O)c1ccc2c(c1)NC(=O)C(C(C)C)N2 (configuration not stated)	4%[46.1 µM]	·	·	-9%	?	·	-5%	-1.6%
NCCC(=O)NC[C@H]1O[C@@H](n2cnc3c(N)ncnc32)[C@H](O)[C@@H]1O	·	·	12%	-6%	-1%	-1%	·	·
COC(=O)C1=C(C)N(Cc2ccccc2)C(=NCc2cc(OC)c(OC)c(OC)c2)N[C@H]1c1ccc(Br)cc1	·	3%	3%&-3%	-20%	·	0%	·	·
CC(=O)Nc1ccc(S(=O)(=O)NCCc2csc3nc(-c4cccc(C)c4)nn23)cc1	-22%[46.1 µM]	·	·	-2%	·	·	19%	-1.7%
COc1ccc2nc(NC(=O)Cc3cccs3)sc2c1	-2%	-7%	9%	0%	4%	-15%	-13%	0.3%
Cc1[nH]c(C)c(S(=O)(=O)N2CCCCC2)c1C(=O)N1CCCCC1	20%[46.1 µM]	0%	-2%	14%	-5%[46.1 µM]	-9%	·	·
C[C@]12CC[C@@H]3c4ccc(OS(=O)(=O)O)cc4CC[C@H]3[C@@H]1CCC2=O	-19%	-4%	-8%	-20%&-19%	7%	2%	4%	-1.4%
CCN(C1CCCCC1)S(=O)(=O)CCNC(=O)c1ccc2c(c1)OCO2	-1%	·	-1%	-12%	-1%[46.1 µM]	-3%	·	·
O=C(O)C1CCCN1S(=O)(=O)c1ccc(Br)cc1 (configuration not stated)	·	4%	2%	-7%	·	-13%	·	·
CCc1cccc(CC)c1NC(=O)Cc1csc(C)n1	8%[46.1 µM]	·	·	-16%	-19%[46.1 µM]	·	-6%	0.5%
CCOc1ccc(CCNC(=O)c2ccc(NC3=NC4CS(=O)(=O)CC4S3)cc2)cc1 (configuration not stated)	·	14%	-4%	19%	·	0%	·	·
CCC1CCc2c(sc(NC(=O)C3CC=CCC3C(=O)O)c2C#N)C1 (configuration not stated)	8%	-11%	-2%	-7%	?	2%	26%	-12%
COc1cc(OC)c(CN2CCCCCCC2)cc1Br	1%	4%	-2%	-11%	-14%	-20%	-6%	-1.0%
CCCC(=O)c1c[nH]c(C(=O)NCc2cccnc2)c1	·	7%	0%	5%	·	-15%	·	·
COc1cccc(NC(=O)Cn2c(=O)n(-c3ccc(C)cc3)c(=O)c3ccccc32)c1	-25%[46.1 µM]	·	·	-11%	?	·	-12%	-4.6%
COc1ccc(-n2c(=O)c(CCC(=O)N3CCN(c4ccccc4O)CC3)nc3ccccc32)cc1	?	·	4%	?	?	-10%	·	·
COc1ccccc1-n1cc(C(=O)NCC(=O)NCc2ccc(F)cc2)c2ccccc2c1=O	-1%[46.1 µM]	·	-8%	-27%	?	-15%	·	·
N/C(=N\OC(=O)CC1CCCCC1)c1cccc([N+](=O)[O-])c1	0%	-43%	-31%	45%[activator]	31%	-16%	-16%	-2.8%
O=C(c1ccco1)N1CCCN(Cc2nc(Cc3ccccc3)no2)CC1	?	1%	1%	-22%	17%[46.1 µM]	14%	·	·
CCCC(c1nnnn1Cc1ccco1)N1CCN(c2cc(Cl)ccc2C)CC1 (configuration not stated)	?	-40%	-12%	?	?	11%	-3%	-3.2%
Cc1ccc(CCNc2nc3ccccc3c3nc(-c4cccnc4)nn23)cc1	·	·	·	-17%	29%[46.1 µM]	·	-4%	0.6%
CN(C)C(=O)c1nc2ccc(Cl)cn2c1CNCc1cccc(OC(F)(F)F)c1	·	1%	-1%	-21%	·	4%	·	·
CN1N=C(C(=O)N2CCCC(N3CCN(c4ccc(F)cc4)CC3)C2)CCC1=O (configuration not stated)	8%	-1%	-6%	-21%	10%	7%	·	·
O=C(CN1C(=O)c2ccccc2C1=O)Nc1ccccc1C(F)(F)F	·	17%	14%	-12%	·	-8%	·	·
CC(NC(=O)CN1CCN(CC(=O)Nc2ccccc2Cl)CC1)c1ccc(Br)cc1 (configuration not stated)	-11%	·	0%	0%	3%	0%	·	·
Cc1c(NC(=O)CN2C(=O)C(=O)N(Cc3ccccc3)C2=O)c(=O)n(-c2ccccc2)n1C	·	3%	-1%	-19%	·	0%	·	·
Cc1ccc(-c2nc3ncccc3o2)cc1NC(=O)c1ccccc1	14%[46.1 µM]	2%	-1%	21%	-1%[46.1 µM]	1%	·	·
CC(=N\O)/C(CN(C)C)=N/O	-9%	?	·	-17%	?	-1%	1%	6.4%
Cc1c([N+](=O)[O-])c2ccc(O)cc2n1-c1ccccc1	·	3%	0%	-2%	·	-6%	·	·
CCc1c(O)nc(N2CCN(Cc3ccccc3)CC2)[nH]c1=O	5%	4%	6%	-25%	-18%	-10%	12%	3.5%
CC(C)Nc1nc(Oc2ccc(=O)n(-c3ccccc3)n2)nc(N(C)C)n1	3%	-1%	8%	-3%	-12%[46.1 µM]	-26%	·	·
COc1cc(C(=O)NC(c2ccccc2)c2ccccc2)cc(OC)c1C	-16%	?	0%	9%	2%[46.1 µM]	-6%	·	·
Cn1c(Oc2ccc(Cl)cc2)c(C=O)c2ccccc21	-21%	-64%	-2%	?	-17%	-7%	-5%	-7.9%
CCc1c(C(=O)OC)ncc2[nH]c3cc(OC)c(OC)cc3c12	·	-33%	·	?	?	·	7%	-7.2%
Cc1c(C(=O)Nc2cccnc2Cl)oc2ccccc12	?	1%	0%	0%	16%[46.1 µM]	-11%	·	·
CC(=O)Oc1ccccc1/C=C1\CCOC1=O	0%	-1%	-2%	·	-17%	-4%	-9%	-0.8%
COc1ccc(C(C)=O)cc1COC(=O)CNC(=O)c1cc(C)cc(C)c1	·	-12%	-2%	-7%	·	-2%	-6%	-12%
O=C(N/N=C/c1cc2c(cc1Cl)OCO2)c1cc(-c2ccccc2)n[nH]1	-30%	8%	1%	0%	17%	2%	·	·
O=C(Cn1c(=O)oc2cc(S(=O)(=O)NCc3ccccc3)ccc21)NCc1ccco1	·	-12%	-2%	2%	·	11%	-17%	-2.3%
O=C(CC1C(=O)NCCN1C(=S)Nc1ccccc1)Nc1ccc2c(c1)OCCO2 (configuration not stated)	-18%	18%	-2%	-17%	4%	0%	1%	2.0%
Cc1ccc(C)c(-c2nnc(NC(=O)CS(=O)(=O)c3ccccc3)o2)c1	-4%	·	3%	2%	9%	0%	·	·
CCOc1ccc(/C=N/N2C(=O)C(CC(=O)Nc3ccc(F)cc3F)SC2=NC)cc1OC (configuration not stated)	-8%	7%	15%	-9%	-3%	16%	27%	-4.4%
O=C(NCc1ccco1)/C(=C/c1cccnc1)NC(=O)c1ccco1	4%	-8%	-20%	-9%	3%	-9%	-7%	5.0%
O=C(NCC1CCCO1)C1CCN(C2CCN(C(=O)Cc3ccsc3)CC2)CC1 (configuration not stated)	0%[46.1 µM]	0%	1%	-25%	9%[46.1 µM]	-3%	·	·
Cc1nc(N2CCOCC2)nc(OCCN(C)C)c1[N+](=O)[O-]	6%	-7%	-7%	9%	-19%	-17%	0%	-2.4%
CN(C)S(=O)(=O)N(CC(=O)N1CCN(c2ccccc2F)CC1)c1ccccc1	-2%	0%	-1%	9%	18%[46.1 µM]	-8%	·	·
O=C(Nc1cc(S(=O)(=O)Nc2ccc(Cl)cc2)ccc1O)c1ccc(F)cc1F	?	·	8%	14%	?	8%	·	·
Cc1cccn2c(=O)cc(CSc3nnc(NC(=O)COc4ccccc4)s3)nc12	5%[46.1 µM]	·	-2%	-12%	·	·	-9%	-20%
O=C(Nc1cccc(S(=O)(=O)NCc2ccco2)c1)c1ccc(Cl)cc1	-24%[46.1 µM]	·	3%	12%	?	-8%	·	·
COc1ccc(-c2csc(NC(=O)C3CC(=O)N(c4ccc5c(c4)OCCO5)C3)n2)cc1 (configuration not stated)	?	?	-29%	0%	?	8%	?	-4.8%
CC1=CC(C)(C)n2c(O)c(N=N)c3c(C)c(C)cc1c32	-34%[46.1 µM]	1%	-2%	?	?	-22%	·	·
C=CCc1cccc(CNc2c(C)n(C)n(-c3ccccc3)c2=O)c1O	15%	8%	-10%	18%	4%	-9%	-1%	-5.4%
Cc1ccc(C(=O)NNC(=O)c2ccc3ccccc3c2)cc1	17%	·	·	55%[activator]	1%	3%	·	·
Cc1ccc(N2C(=O)CC(=O)NC2=O)cc1Cl	?	10µM*	5%	-16%	0%[46.1 µM]	-20%	·	·
Cc1ccc(CS(=O)Cc2ccc(C(=O)N3CCN(c4ccccn4)CC3)o2)cc1 (configuration not stated)	·	-14%	-2%	-8%	·	-1%	·	·
Oc1cccc2ccc(N3CCOCC3)nc12	·	-3%	-1%	28%	·	-11%	·	·
COc1cc2cc(C(=O)N3CCc4ccccc4C3)[nH]c2cc1OC	·	-12%	-2%	-13%	·	0%	·	·
CN(C)C(CNC(=O)CSC(=S)N1CCCC1)c1ccccc1 (configuration not stated)	11%	·	-6%	4%	-29%	?	·	·

Later entries
SMILES	LASV entry inh	NS1 function inh	SARS PLpro yeast	2A StopGo	Marburg entry inh	RE007 growth inh	Cruzain inh noDet	Cruzain Triton
CC(C)C(O)(CC#CCN1CCCC1)c1ccccc1 (configuration not stated)	-15%[46.1 µM]	·	4%	-14%	?	4%	·	·
CC(OC(=O)CNS(=O)(=O)c1ccc2ccccc2c1)C(=O)N(C)c1ccccc1 (configuration not stated)	19%	2%	·	26%	1%	0%	·	·
COc1ccc(S(=O)(=O)N2CCC(C(=O)NCc3ccccc3)CC2)cc1OC	3%[46.1 µM]	2%	-1%	0%	19%[46.1 µM]	-6%	·	·
Cc1ccc(N(CC(=O)Nc2ccc(C)cc2C)S(=O)(=O)N2CCCC2)cc1	8%	-7%	-10%	7%	?	4%	2%	-1.4%
COc1cccc(C(=O)COC(=O)c2cccs2)c1	·	4%	-2%	38%[activator]	·	-26%	·	·
Cc1ccc(CNC(=O)CCNC(=O)c2ccco2)cc1	14%	12%	8%	17%	20%	4%	9%	5.5%
